Source: PubChem BioAssay
2A StopGo = High Throughput Screening for Foot and Mouth Disease Virus Antivirals | human cells with a luciferase reporter of 2A StopGo recoding; control for the full effect not named in the record | Potency, µM (top dose mostly 57.9 µM), without a hit: top-dose signal change, negative = less light | 1.2% of 410,000 active | AID 1159524, 2015; active = well fitted falling curve with a large enough effect; inconclusive = small, poorly fitted or top-dose-only effect; inactive = no such curve, though single readings can be large or run the other way; tested in HEK293T cells; note: nearly all actives have a fitted effect of over 45% in size; luciferase light after 4 h
RE007 growth inh = qHTS Assay for Inhibitors of the HIV-1 protein Vpr | 0.21% of 360,000 active | S. pombe RE007 Vpr strain, BacTiter-Glo ATP luminescence, 24 h; control for the full effect not named in the record | Potency, µM (doses to about 92.2 µM), for inactives: at the highest dose activity change, negative = less growth | AID 651644, 2012; active = well fitted falling curve with a large enough effect; inconclusive = small, poorly fitted or top-dose-only effect; inactive = no such curve, though single readings can be large or run the other way;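 note: nearly all actives have a fitted effect of over 50% in size; the assay follows cell death caused by Vpr and the record does not say whether a fall means rescue or toxicity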
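Fission yeast strain RE007, carrying one chromosomally integrated HIV-1 vpr copy, was seeded at OD 0.01 in PMG+AL medium with 23 nL pinned compound. After 24 h at 30 °C and 99% humidity, viability was read by BacTiter-Glo luminescence.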
The depositor's hits bear a star; u = inconclusive; [ ] = dose if it differs, or a comment. % is set by controls: 0 for no effect and ±100 for the full control effect; potency is the fitted concentration of half-maximal effect. This is a subset. The share of hits here may be higher or lower than overall.

The opening 6 compounds, ahead of the listing:
canonical_smiles | 2A StopGo | RE007 growth inh
Cc1cccc(NC(=O)c2ncn3c2C(=O)N(C)CC3)c1 | -6% | u
CSc1ccc(OC2(C)CCN(Cc3ccc(OC(F)(F)F)cc3)C2)cc1 (stereo not given) | -15% | -28%
CC(C)=CCc1c2c(c(O)c3c(=O)c4c(oc13)-c1cc(O)c(O)cc1OC4C=C(C)C)C=CC(C)(C)O2 (stereo not given) | u | 4%
CC(C)C[C@@H]1Cc2[nH]c(=S)[nH]c(=O)c2[C@H](CCc2ccccc2)O1 | -16% | 10%
CCCCN1C(=O)C(CC(=O)NCCCN(C)C)CC(C(=O)N2CCCCCC2)=C1C (stereo not given) | -27% | -15%
CC1(C(=O)NCC2CC2)Cc2c(-c3cccc(C(F)(F)F)c3)ccnc2O1 (stereo not given) | -23% | 5%[18.4 µM]

Main list, from the first entry:
canonical_smiles | 2A StopGo | RE007 growth inh
Cc1cccc(NC(=O)c2ncn3c2C(=O)N(C)CC3)c1 | -6% | u
CSc1ccc(OC2(C)CCN(Cc3ccc(OC(F)(F)F)cc3)C2)cc1 (stereo not given) | -15% | -28%
CC(C)=CCc1c2c(c(O)c3c(=O)c4c(oc13)-c1cc(O)c(O)cc1OC4C=C(C)C)C=CC(C)(C)O2 (stereo not given) | u | 4%
CC(C)C[C@@H]1Cc2[nH]c(=S)[nH]c(=O)c2[C@H](CCc2ccccc2)O1 | -16% | 10%
CCCCN1C(=O)C(CC(=O)NCCCN(C)C)CC(C(=O)N2CCCCCC2)=C1C (stereo not given) | -27% | -15%
CC1(C(=O)NCC2CC2)Cc2c(-c3cccc(C(F)(F)F)c3)ccnc2O1 (stereo not given) | -23% | 5%[18.4 µM]
CC(=O)N1CCN(S(=O)(=O)c2cccc(C(=O)OCC(=O)NCc3ccccc3Cl)c2)CC1 | 3% | 7%
Cc1cnc(C(=O)N2CCN(S(=O)(=O)c3cc(C(F)(F)F)cc(C(F)(F)F)c3)CC2)cn1 | 0% | -22%
C=C1[C@H]2CC[C@H]3[C@]4(C)C[C@H](O[C@H]5O[C@H](CO)[C@@H](OS(=O)(=O)O)[C@H](OS(=O)(=O)O)[C@H]5OC(=O)CC(C)C)C[C@@H](C(=O)O)[C@H]4CC[C@]3(C2)[C@H]1O | -5% | 51%[18.4 µM]
COc1ccc(OC)c(S(=O)(=O)NC(=O)C2(C)CCN2C(=O)c2ccco2)c1 (stereo not given) | -10% | 9%
CCOC(=O)[C@]12CCCC=C1N(CCC1=CCCCC1)C(=O)[C@H](CC(=O)NCc1ccc(C)o1)C2 | 19% | -11%
Nc1ncnc2c1ncn2[C@@H]1O[C@H](CCC(=O)NCc2ccccc2)[C@@H](O)[C@H]1O | -5% | 17%

Six records picked at random from those above:
canonical_smiles | 2A StopGo | RE007 growth inh
Cc1cccc(NC(=O)c2ncn3c2C(=O)N(C)CC3)c1 | -6% | u
C=C1[C@H]2CC[C@H]3[C@]4(C)C[C@H](O[C@H]5O[C@H](CO)[C@@H](OS(=O)(=O)O)[C@H](OS(=O)(=O)O)[C@H]5OC(=O)CC(C)C)C[C@@H](C(=O)O)[C@H]4CC[C@]3(C2)[C@H]1O | -5% | 51%[18.4 µM]
CC(C)C[C@@H]1Cc2[nH]c(=S)[nH]c(=O)c2[C@H](CCc2ccccc2)O1 | -16% | 10%
COc1ccc(OC)c(S(=O)(=O)NC(=O)C2(C)CCN2C(=O)c2ccco2)c1 (stereo not given) | -10% | 9%
CC1(C(=O)NCC2CC2)Cc2c(-c3cccc(C(F)(F)F)c3)ccnc2O1 (stereo not given) | -23% | 5%[18.4 µM]
CCOC(=O)[C@]12CCCC=C1N(CCC1=CCCCC1)C(=O)[C@H](CC(=O)NCc1ccc(C)o1)C2 | 19% | -11%

The listing continues.
canonical_smiles | 2A StopGo | RE007 growth inh
Cc1ccc(C)c(S(=O)(=O)N2CCN(C(=O)CCC(=O)NCc3ccc(Cl)cc3Cl)CC2)c1 | u | 0%
C[C@@H]1CN(S(=O)C(C)(C)C)[C@@H](CCO)/C1=C\c1ccccc1 (stereo not given in full) | -12% | 4%
Cc1ccc(C(=O)NCC(=O)OCCCn2c(=O)[nH]c3ccccc32)cc1C | 1% | -10%
COc1cc(C(=O)NCCNc2nc3c(C)cccc3cc2C#N)cc(OC)c1OC | u | -12%
COc1ccc(-c2oc3c(c2C(=O)OCCCO)C(OCCO)CCC3)cc1 (stereo not given) | -15% | 9%
COc1cc(C)ccc1OCc1cc(C(=O)NC2CCOCC2)no1 | 70%[activator] | -2%
CC(C)(C)C(=O)N1CCC2CC1c1cc(Cl)ccc12 (stereo not given) | 18% | -11%
Cc1cccc(NC(=O)C(C)OC(=O)CNC(=O)C2CCCCC2)c1 (stereo not given) | -10% | -8%
C[C@H]1CN([C@@H](C)CO)C(=O)CCCn2nncc2CO[C@@H]1CN(C)Cc1ccc(C(=O)O)cc1 | -15% | -2%
CCOC(=O)C1=C(COC(=O)CNS(=O)(=O)c2ccc(NC(C)=O)cc2)NC(=O)NC1C (stereo not given) | -17% | 16%
COc1ccc(C(=O)N2CCC(C)(C(=O)NS(=O)(=O)C3CC3)C2)cc1F (stereo not given) | 0% | 0%
Cc1cc(C)cc(Cn2c3ccc(NC(=S)NCc4ccccc4F)cc3c(=O)n2C)c1 | 49%[activator] | 13%
CNc1ccc(-c2ccccc2OC)cn1 | -10% | -14%[18.4 µM]
C#CCN(C[C@@H]1[C@@H](OC(=O)NCc2ccccc2F)[C@@H](OC(=O)NCc2ccccc2F)Cn2c(=O)ccc(=O)n21)S(=O)(=O)c1ccc(C)cc1 | 14µM* | -14%
Cc1ccc(CN2CCCC2(C)C(=O)NC(C)C)cc1 (stereo not given) | -15% | -1%
COCc1cccc(-c2csc(C(NC(C)=O)c3cccc(F)c3)n2)c1 (stereo not given) | -19% | -16%
CC1(Oc2cccc(F)c2)CCN(Cc2ccc(-c3ccccn3)cc2)C1 (stereo not given) | -16% | -21%
Cc1ccc(OCC(=O)N2CCc3ccccc3C2)cc1C | 40%[activator] | -27%
Cc1cccc(C)c1NC(=O)C1C(c2ccccc2)=Nc2ccccc2N1C(=O)c1cnccn1 (stereo not given) | 24% | 6%
CC(=O)Nc1cc(-c2ccc(C(=O)NC3CC3)cc2)cn2c(-c3ccc(F)c(Cl)c3)cnc12 | -10% | 5%[18.4 µM]
c1ccc(CNc2nc(NCCOc3ccccc3)c3sccc3n2)cc1 | u | -17%
CC(C)=CCC[C@H](C)C[C@@H]1Cc2[nH]c(=S)[nH]c(=O)c2[C@@H](c2ccc(F)cc2)O1 | 0% | 7%
Cc1ccc(S(=O)(=O)N2CCCOC2CNC(=O)C(=O)NCCc2ccco2)cc1 (stereo not given) | -10% | 0%
CCCC(=O)N1CCCC1(C)C(=O)Nc1ccc2cn[nH]c2c1 (stereo not given) | -20% | 7%
CC1(C(=O)NS(=O)(=O)c2cccc(C#N)c2)CCN1C(=O)C1(c2ccccc2)CC1 (stereo not given) | 13% | -11%[18.4 µM]
Cc1ccc(S(=O)(=O)N2C[C@H]3C(=O)C[C@@H](c4ccccc4)N(S(C)(=O)=O)[C@H]3C[C@H]2c2ccccc2)cc1 | -1% | 18%
CCN1C[C@@H]2[C@@H]3C(=O)N(C)C(=O)[C@@H]3[C@](CC)(C1=O)N2C(=O)c1ccc(C(F)(F)F)cc1 | -8% | -15%
O=C1Nc2ccccc2C(=O)N(c2ccc3c(c2)OCCO3)C1C(=O)NC1CC1 (stereo not given) | -14% | -1%
COC1=CC(=O)OC(c2cccc(C#N)c2)C1 (stereo not given) | -10% | 0%
O=C(CCC(=O)N1CCN(S(=O)(=O)c2ccc(Cl)cc2)CC1)NCc1cccc(C(F)(F)F)c1 | u | -10%
Cc1nc(C(F)(F)F)ccc1C(=O)N1CCC1(C)C(=O)NCc1ccc(Cl)cc1 (stereo not given) | -17% | 9%
OC1COC(c2ccccc2)OC1C1OC(c2ccccc2)OCC1O (stereo not given) | 0% | -5%
CCS(=O)(=O)N1Cc2cc(C(=O)NCCOC)nc(-c3cccc(-c4ccncc4)c3)c2[C@@H]1CCO | -29% | 7%
COc1cc2oc(=O)cc(CN3CCN(c4ccc(Cl)c(Cl)c4)CC3)c2cc1Cl | -24% | 9%
O=C(NC1CCCCC1)c1ccc2c(c1)S(=O)(=O)c1ccccc1C2=O | 10% | -7%
CCCCNC(=O)C1(C)CCCCN1C(=O)c1c(F)ccc(C)c1F (stereo not given) | -5% | -4%

Of the compounds above, 2 have a tert-butyl group:
canonical_smiles | 2A StopGo | RE007 growth inh
C[C@@H]1CN(S(=O)C(C)(C)C)[C@@H](CCO)/C1=C\c1ccccc1 (stereo not given in full) | -12% | 4%
CC(C)(C)C(=O)N1CCC2CC1c1cc(Cl)ccc12 (stereo not given) | 18% | -11%

Following part
canonical_smiles | 2A StopGo | RE007 growth inh
Cc1ccc2nc(-c3ccc(Cl)cc3)c(Cc3cccc(Cl)c3)n2c1 | -5% | -26%
O=C1C(=Cc2cn(-c3ccccc3)nc2-c2ccc(OCc3ccccc3)cc2)SC(=S)N1CCS(=O)(=O)O | -22% | -5%
Cn1nnc2cc(NC(=O)Nc3ccccc3F)ccc21 | 1% | -14%
C[C@@H]1CN([C@H](C)CO)C(=O)c2cc(Br)cnc2O[C@H]1CN(C)C(=O)Cc1ccncc1 | -5% | 34%
OCCN1CCN(CCCN2c3ccccc3CCc3ccccc32)CC1 | u | 6%
CCC(=O)c1ccc(OCC(=O)OCc2csc(CC(=O)Nc3ccccc3C)n2)cc1 | 0% | 7%
CCCCC(c1nc2ccccc2[nH]1)n1c(-c2ccccc2)nc2cc(C)c(C)cc21 (stereo not given) | -9% | 38%
CC1(Cc2ccc(F)cc2)C(=O)Nc2ccc(S(=O)(=O)NC3CCCCC3)cc21 (stereo not given) | 10% | 8%
CC1=C(C(=O)N(C)C)CC(CC(=O)NC(c2ccccc2)c2ccccc2)C(=O)N1Cc1ccccc1 (stereo not given) | -2% | -1%
COC(=O)[C@@H]1N=C(c2ccc(OC)cc2)O[C@]12C(=O)N(C)c1ccc(Cl)cc12 | -16% | -16%
CCCCNC(=O)C1C(c2ccc(C(F)(F)F)cc2)=Nc2ccccc2N1C(C)=O (stereo not given) | 0% | -29%
CC1=C(C(=O)N(C)C)CC(CC(=O)NCCc2ccccn2)C(=O)N1CCCN1CCCC1=O (stereo not given) | -9% | -1%
Cc1ccc(C(=O)N2[C@@H]3CN(C)C(=O)[C@@]2(Cc2ccccc2)[C@H]2C(=O)N(C)C(=O)[C@@H]32)cc1 | -8% | 3%
COc1cc(OC)c2c(c1)O/C(=C\c1ccccc1)C2=O | 87%[activator] | -20%
Cc1cccc(C)c1NC(=O)C1(C)CSCC(=O)N1C1CCN(Cc2ccccc2)CC1 (stereo not given) | -12% | -12%
COc1ccc(NC(=O)C2Cc3c(-c4ccccc4Oc4ccccc4)ccnc3O2)cc1OC (stereo not given) | 25µM* | 17%
O=C(COC(=O)Cc1c[nH]c2ccccc12)Nc1cccc(Br)c1 | -10% | -4%
O=c1cc(-c2ccccc2)oc2c1CCCC2 | 3% | -25%
O=C1NC[C@H](CCCCN2CCN(CCc3ccccc3)C(=O)C2=O)N(Cc2ccccc2)C1=O | -16% | 5%
Fc1ccc(-c2nc3c4ccccc4ccn3c2Cc2ccsc2)cc1 | 7% | -30%
COc1ccccc1CCn1cnc(-c2ccc(Br)cc2)c1C(C)C | u | -21%
C[C@@H]1CCCCO[C@@H](CN(C)Cc2ccccc2)[C@@H](C)CN([C@H](C)CO)C(=O)c2cc(N(C)C)ccc2O1 | -20% | 5%
CC(C)N1CCCC(C)(C(=O)Nc2ccc3c(c2)OCO3)C1 (stereo not given) | -6% | -4%[18.4 µM]
C#CCN(CC(=O)OCC)S(=O)(=O)CCNC1CC1 | -21% | -16%
CC(C)C[C@@H](CN1CCC[C@@H]1CN1C(=O)C(=O)NC[C@@H]1Cc1ccccc1)N1C[C@H](Cc2ccccc2)N(CC2CCCCC2)C(=O)C1=O | -14% | 15%
